Screens as filed in PubChem BioAssay.
NOMO-1 viab = STK33 inhibitor candidate reducing NOMO-1 cell viability. inhibition, % (test concentration not listed). AID 2330. 37,000 compounds, 7.5% hits. NOMO-1 AML viability, CellTiter-Glo luminescence, 72 h;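 active = most replicates above 80%; inconclusive = exactly half above 80%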;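 note: wells of about 30 µL received 25 nL stock; 0% = median of vehicle wells and 100% = reference inhibitor level; the first replicate is given; inactives centre near 10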
Starred values were filed as active, the others as inactive; ? = inconclusive.

SMILES	NOMO-1 viab
CCc1nnc(NC(=O)CSc2nc(-c3ccccc3)cc(C(F)(F)F)c2C#N)s1	4.7
COc1ccccc1NC(=O)c1cnc(Nc2nc3ccccc3o2)nc1C	18.1
Cc1ccc(S(=O)(=O)Nc2ccc3c(c2)CC(=O)N([C@@H](C)CO)C[C@H](C)[C@@H](CN(C)C(=O)Nc2cccc4ccccc24)O3)cc1	-10.0
Cn1c(SCC(=O)Nc2cc(Cl)cc(Cl)c2)nnc1-c1ccc(Cl)cc1Cl	?
C[C@@H]1CN([C@H](C)CO)C(=O)c2cccc(NS(=O)(=O)c3cccs3)c2O[C@@H]1CN(C)S(=O)(=O)c1ccccc1	24.4
Cc1ccc(S(=O)(=O)Nc2cccc3c2O[C@H](CN(C)S(=O)(=O)c2ccc(Cl)cc2)[C@@H](C)CN([C@H](C)CO)C3=O)cc1	-5.7
C/C=C(/C)C(=O)O[C@H]1[C@H](OC(=O)/C(C)=C\C)[C@]2(CO)[C@H](O)C[C@]3(C)C(=CCC4[C@@]5(C)CC[C@H](OC6OC(C(=O)O)C(O)C(OC7OC(C)C(O)C(OC8OC(CO)C(O)C(O)C8O)C7O)C6O)C(C)(C)C5CC[C@]43C)[C@@H]2CC1(C)C (stereo partly specified)	121.9*
Cc1nc(SCC(=O)Nc2ccnc3ccccc23)n[nH]1	26.1
Cc1ccc(-n2c(SCC(=O)N(C)c3ccccc3)nc3nc4c(cc3c2=O)COC(C)(C)C4)cc1	24.9
Cc1nn2c(-c3cccc(NC(=O)CN4CCCCC4)c3)nnc2c2ccccc12	55.7
Cc1ccc(S(=O)(=O)Nc2ccc(C(=O)Nc3cccc(N(C)S(C)(=O)=O)c3)cc2)cc1	3.0
C[C@H]1CN([C@@H](C)CO)C(=O)Cc2cc(NC(=O)CCC(F)(F)F)ccc2O[C@@H]1CN(C)Cc1ccc(C(=O)Nc2ccccc2N)cc1	43.4
CNC[C@H]1Oc2c(NC(=O)c3nc4ccccc4s3)cccc2C(=O)N([C@@H](C)CO)C[C@@H]1C	16.1
COc1ccccc1CC(=O)Nc1ccccc1C(=O)NC(C)(C)C	17.0
COc1ccc(CN(C)C[C@@H]2Oc3c(NC(=O)c4cnccn4)cccc3C(=O)N([C@H](C)CO)C[C@H]2C)cc1	27.0
C[C@H](CO)N1C[C@H](C)[C@@H](CN(C)Cc2ccc(C(=O)Nc3ccccc3N)cc2)Oc2c(NC(=O)Nc3ccc(F)cc3)cccc2C1=O	125.5*
CC(C)(C)C1CCC2(CC1)C(C#N)C2(C#N)C(=O)c1ccccc1 (stereo unspecified)	125.4*
C[C@H]1CN([C@@H](C)CO)C(=O)Cc2cc(NS(=O)(=O)c3cccs3)ccc2O[C@@H]1CN(C)S(=O)(=O)c1cn(C)cn1	18.8
COc1cc(CN2CCN(Cc3ccco3)CC2)c([N+](=O)[O-])cc1OC	-10.8
CCN(CC)S(=O)(=O)c1cccc(C(=O)NN)c1	13.1
COc1ccc(CN(C)C[C@@H]2Oc3c(NC(=O)C4CCCCC4)cccc3C(=O)N([C@H](C)CO)C[C@@H]2C)cc1	18.0
CC(=O)c1cccc(NC(=O)CCN2C(=O)C3C4CCC(C4)C3C2=O)c1 (stereo unspecified)	5.3
CCOC(=O)c1ccc(NC(=O)Cn2cnc3ccccc3c2=O)cc1	-14.6
O=C(CCNc1ccc2c(c1)oc1ccccc12)c1ccc([N+](=O)[O-])cc1	22.2
C[C@H]1CN([C@@H](C)CO)C(=O)c2cc(NC(=O)NC3CCCCC3)ccc2O[C@H]1CN(C)S(=O)(=O)c1ccc(Cl)cc1	0.9
Cc1nnc(SCc2ccccc2C#N)n1-c1ccccc1	31.0
O=C(/C=C/c1ccccc1)Oc1ccccc1	47.8
CCc1cc(=O)oc2cc(OCc3cc(C(=O)OC)oc3C)ccc12	-0.5
C[C@@H]1CN([C@@H](C)CO)C(=O)c2cc(NC(=O)CCCCCC(=O)Nc3ccccc3N)ccc2O[C@@H]1CN(C)S(=O)(=O)c1ccc(Cl)cc1	-2.5
COC(=O)Cc1[nH]nc2c1C1(CCSCC1)C(C#N)=C(N)O2	-6.7
C[C@@H]1CC(=O)C2=C(C1)C[C@@H](O)[C@@]1(O)C2C(=O)c2cccc(O)c2[C@@H]1O (stereo partly specified)	3.9
Cc1ccnc(NC(=O)Cn2cnc3c2c(=O)n(C)c(=O)n3C)n1	36.3
Cc1c(CC(=O)O)c(=O)oc2cc(OCC(=O)O)ccc12	-25.6
N#CC1=C(N)N2CCSC2=NC1(C(F)(F)F)C(F)(F)F	-13.9
C[C@@H]1CN([C@@H](C)CO)C(=O)c2cc(NC(=O)C3CC3)ccc2O[C@@H]1CN(C)CC1CCCCC1	-1.6
C[C@H](CO)N1C[C@H](C)[C@@H](CN(C)S(=O)(=O)c2ccccc2)Oc2c(NS(=O)(=O)c3cn(C)cn3)cccc2C1=O	4.8

Ordered by formula weight (ascending): part of the list above.
SMILES	NOMO-1 viab
O=C(/C=C/c1ccccc1)Oc1ccccc1	47.8
Cc1nnc(SCc2ccccc2C#N)n1-c1ccccc1	31.0
CCc1cc(=O)oc2cc(OCc3cc(C(=O)OC)oc3C)ccc12	-0.5
C[C@@H]1CN([C@@H](C)CO)C(=O)c2cc(NC(=O)C3CC3)ccc2O[C@@H]1CN(C)CC1CCCCC1	-1.6
C[C@H]1CN([C@@H](C)CO)C(=O)c2cc(NC(=O)NC3CCCCC3)ccc2O[C@H]1CN(C)S(=O)(=O)c1ccc(Cl)cc1	0.9

Later entries
SMILES	NOMO-1 viab
C[C@@H]1CN([C@@H](C)CO)C(=O)c2cc(NC(=O)Cc3cn(C)c4ccccc34)ccc2O[C@@H]1CN(C)Cc1ccc2c(c1)OCO2	57.0
CSc1c(CC(=O)Nc2ccccc2)n(C)c2ccccc12	39.7
CCOC(=O)c1cc2ccccc2nc1C	7.7
C[C@@H]1CN([C@H](C)CO)C(=O)Cc2cc(NC(=O)CCCCCC(=O)Nc3ccccc3N)ccc2O[C@H]1CN(C)Cc1ccc2c(c1)OCO2	49.4
COc1c(O)ccc(C(c2cn(C)c3ccccc23)c2cn(C)c3ccccc23)c1[N+](=O)[O-]	69.9
Cc1ccc(-c2cc(C(=O)NCc3ccco3)no2)cc1	2.3
Cc1cc(C)c(NC(=O)CSc2nc3ccc(NC(=O)c4ccccc4C)cc3s2)c(C)c1	38.8
Cc1ccc(S(=O)(=O)Nc2ccc3c(c2)C(=O)N([C@H](C)CO)C[C@H](C)[C@@H](CN(C)C(=O)Nc2ccc4c(c2)OCO4)OCCCC[C@@H](C)O3)cc1	6.1
CCOc1ccc2nc(SCC(=O)Nc3c(C)cccc3C)[nH]c2c1	52.0
Cc1ccc(CN(CC(=O)O)S(=O)(=O)c2ccc(Br)cc2)cc1	-7.9
COc1ccc(NC(=O)CSC2CC(=O)N(c3cc(Cl)cc(Cl)c3)C2=O)cc1 (stereo unspecified)	4.0
O=C(CSc1nc2ccc(NC(=O)c3ccccc3F)cc2s1)c1cccc([N+](=O)[O-])c1	3.7
O=C(c1cccc(S(=O)(=O)NC2CCCCCC2)c1)N1CCCc2ccccc21	34.2
CSc1nnc(-c2cc(OCC(F)(F)F)nc(OCC(F)(F)F)c2)n1Cc1ccco1	38.2
CS(=O)(=O)N(CC(=O)Nc1ccc(Oc2ccccc2)cc1)c1ccc(F)c(Cl)c1	29.4
CNC(=S)N(Cc1ccncc1)C1CC(=O)N(c2ccc(OC)cc2)C1=O (stereo unspecified)	0.8
C[C@@H]1CCCCO[C@H](CN(C)Cc2ccc3c(c2)OCO3)[C@@H](C)CN([C@H](C)CO)C(=O)c2cc(NC(=O)Nc3ccccc3)ccc2O1	39.1
Cc1ccc(SC(C)C(=O)c2ccc(C)c(Cl)c2)cc1 (stereo unspecified)	50.9
C[C@H](CO)N1C[C@H](C)[C@H](CN(C)S(=O)(=O)c2ccc(F)cc2)Oc2ccc(NC(=O)Cc3ccccc3)cc2C1=O	-0.3
C[C@H]1CN([C@@H](C)CO)C(=O)c2cc(NC(=O)C3CC3)ccc2O[C@@H]1CN(C)C(=O)Nc1ccc2c(c1)OCO2	-8.1
Cc1noc(C)c1NC(=O)Nc1ccc2c(c1)C(=O)N([C@@H](C)CO)C[C@H](C)[C@H](CN(C)S(=O)(=O)c1ccc(Cl)cc1)O2	-6.7
CCn1c2ccc(Cl)cc2c2cc(Cl)ccc21	-2.6
CC(C)NC(=O)Nc1ccc2c(c1)CC(=O)N([C@@H](C)CO)C[C@H](C)[C@H](CN(C)CC1CC1)O2	6.0
Cc1ccc(S(=O)(=O)Nc2ccc3c(c2)C(=O)N([C@@H](C)CO)C[C@@H](C)[C@@H](CN(C)C(=O)Nc2ccc(C(F)(F)F)cc2)O3)cc1	111.1*

Reformatted: four of the compounds above.
CCn1c2ccc(Cl)cc2c2cc(Cl)ccc21
- NOMO-1 viab: -2.6

C[C@H]1CN([C@@H](C)CO)C(=O)Cc2cc(NC(=O)CCC(F)(F)F)ccc2O[C@@H]1CN(C)Cc1ccc(C(=O)Nc2ccccc2N)cc1
- NOMO-1 viab: 43.4

CS(=O)(=O)N(CC(=O)Nc1ccc(Oc2ccccc2)cc1)c1ccc(F)c(Cl)c1
- NOMO-1 viab: 29.4

C[C@H]1CN([C@@H](C)CO)C(=O)c2cc(NC(=O)NC3CCCCC3)ccc2O[C@H]1CN(C)S(=O)(=O)c1ccc(Cl)cc1
- NOMO-1 viab: 0.9

Remaining list, next part.
SMILES	NOMO-1 viab
COC(=O)c1cc(NC(=O)CN(c2cc(C)cc(C)c2)S(C)(=O)=O)ccc1Cl	66.2
CNC[C@@H]1Oc2ccc(N)cc2C(=O)N([C@@H](C)CO)C[C@H]1C	-4.8
C[C@H]1CN([C@@H](C)CO)C(=O)Cc2cc(NS(=O)(=O)c3ccc(F)cc3)ccc2O[C@@H]1CN(C)S(=O)(=O)c1cccs1	4.5
COc1ccc(NC(=O)Nc2cccc3c2O[C@@H](CN(C)S(=O)(=O)c2ccc(OC)cc2)[C@@H](C)CN([C@@H](C)CO)C3=O)cc1	11.0
COc1ccc(NC(=O)Nc2ccc3c(c2)C(=O)N([C@@H](C)CO)C[C@@H](C)[C@H](CN(C)C(=O)Nc2c(C)noc2C)O3)cc1	-4.4
C[C@@H]1CN([C@H](C)CO)C(=O)Cc2cc(NC(=O)C3CCCCC3)ccc2O[C@H]1CN(C)C(=O)Nc1ccc(C(F)(F)F)cc1	27.0
CCn1c(-c2nonc2NC(=O)c2ccccc2)nc2ccccc21	46.1
C[C@H](CO)N1C[C@H](C)[C@H](CN(C)Cc2ccncc2)Oc2ccc(NC(=O)Cc3cn(C)c4ccccc34)cc2CC1=O	6.9
C[C@@H]1CN([C@H](C)CO)C(=O)c2cc(NC(=O)Nc3ccc(C(F)(F)F)cc3)ccc2O[C@H]1CN(C)S(=O)(=O)c1ccccc1	52.5
C[C@H](CO)N1C[C@H](C)[C@@H](CN(C)C(=O)Nc2cccc3ccccc23)Oc2ccc(NC(=O)C3CC3)cc2C1=O	18.6
C[C@H]1CN([C@@H](C)CO)C(=O)Cc2cc(NS(=O)(=O)c3cccs3)ccc2O[C@@H]1CN(C)CC1CCCCC1	55.5
CNC[C@@H]1Oc2ccc(N(C)C)cc2CC(=O)N([C@H](C)CO)C[C@@H]1C	1.7
CS(=O)(=O)N(CC(=O)Nc1ccccc1C(F)(F)F)c1ccccc1Br	7.0
Cc1noc(C)c1S(=O)(=O)N(C)C[C@@H]1Oc2ccc(NC(=O)NC3CCCCC3)cc2CC(=O)N([C@@H](C)CO)C[C@@H]1C	-14.1
COc1cc(S(=O)(=O)n2cnc3ccccc32)c(OC)cc1Cl	84.2*
C[C@@H]1CN([C@@H](C)CO)C(=O)c2cccc(N(C)C)c2O[C@@H]1CN(C)S(=O)(=O)c1ccc(Cl)cc1	-4.4
C[C@@H]1CN([C@H](C)CO)C(=O)c2cc(NC(=O)Nc3ccccc3)ccc2O[C@@H]1CN(C)Cc1ccc(Oc2ccccc2)cc1	38.0
CC(C)NC(=O)Nc1cccc2c1O[C@@H](CN(C)CC1CCCCC1)[C@H](C)CN([C@@H](C)CO)C2=O	23.5
COc1ccc(S(=O)(=O)Nc2ccc3c(c2)C(=O)N([C@H](C)CO)C[C@@H](C)[C@@H](CN(C)CC2CCCCC2)O3)cc1	-3.1
C=CCn1c2ccccc2n2nc(CCC(=O)O)c(=O)nc12	-4.2
CCOc1ccc(Cc2nccc3cc(OCC)c(OCC)cc23)cc1OCC	34.7
C[C@@H]1CN([C@@H](C)CO)C(=O)c2cc(NC(=O)Cc3cn(C)c4ccccc34)ccc2O[C@H]1CN(C)Cc1ccccc1	17.6
C[C@H]1CN([C@@H](C)CO)C(=O)c2cc(NC(=O)c3ccncc3)ccc2O[C@H]1CN(C)Cc1ccc(Cl)c(Cl)c1	15.4
COc1ccc(C)cc1S(=O)(=O)N(C)CC(=O)Nc1cccc(F)c1	0.1
C[C@@H]1CN([C@H](C)CO)C(=O)c2cccc(NC(=O)Nc3ccc4c(c3)OCO4)c2O[C@H]1CN(C)S(=O)(=O)c1cccs1	-12.3
CNC[C@@H]1Oc2c(NS(=O)(=O)c3cn(C)cn3)cccc2C(=O)N([C@@H](C)CO)C[C@@H]1C	26.9
O=C(CSc1nnc(-c2ccncc2)o1)Nc1ccccc1	21.7
Cc1ccc(S(=O)(=O)N(C)C[C@@H]2Oc3ccc(NC(=O)C4CC4)cc3C(=O)N([C@@H](C)CO)C[C@@H]2C)cc1	3.8
C[C@H]1CN([C@@H](C)CO)C(=O)Cc2cc(NC(=O)c3ccncc3)ccc2O[C@@H]1CN(C)C(=O)NC1CCCCC1	1.1
C[C@@H]1CN([C@@H](C)CO)C(=O)c2cc(NC(=O)CCCN(C)C)ccc2O[C@@H]1CN(C)S(=O)(=O)c1ccc(F)cc1	-9.3
C[C@@H]1CN([C@H](C)CO)C(=O)Cc2cc(NS(C)(=O)=O)ccc2O[C@@H]1CN(C)CC1CCCCC1	4.3

Some of the compounds tested; rates above refer to the full screens.
